miR-21 reporter: miR-21 reporter, rising signal. HeLa miR-21 FLuc reporter, luciferase, 48 h. Potency, µM (top dose mostly 38.3 µM), without a hit: top-dose reporter change, positive = more light. 340,000 tested, under 10 active. AID 2288; active = well fitted rising curve with a large enough effect; inconclusive = small, poorly fitted or top-dose-only effect; inactive = no such curve, though single readings can be large or run the other way;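 further: % of control where 0% means no effect; miR-21 action dims this reporter so a rising signal means less miR-21 action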
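HeLa cells endogenously expressing miR-21, stably carrying CMV-driven firefly luciferase with a downstream miR-21 binding site, 2000 cells/well. Titrations up to approximately 40 uM, 48 hours; luciferase luminescence read.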
Rango dissoc inh: prevents RanGTP from dissociating the Rango-importin beta complex. 340,000 compounds, 0.071% hits. Biochemical FRET Rango-importin beta, RanGTP-induced dissociation. Potency, µM (series often up to 46.1 µM), for the others: top-dose activity change, negative = inhibition. AID 540253; active means falling FRET ratio curve, often poorly fitted, with flat reads before Ran was added; inconclusive means other falling curves, or compound fluorescence or quenching; inactive means flat or rising ratio curve;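 further: potency means the concentration at half of the fitted maximal effect; % of control where 0% means no effect; nearly all actives have a fitted effect of over 45% in size; -100% = wells without RanGTP and RCC1; the record marks most hits as doubtful in a second field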
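Rango FRET biosensor (snurportin-1 IBB flanked by N-terminal EYFP and C-terminal CFP10) at 0.1 uM, with 0.25 uM importin beta in PBS, 1mM DTT, 0.02% Tween-20, 0.1% BSA. 0.6 uM Ran, 2mM GTP and 0.2 uM RCC1 were then added for 45 min at room temperature. Inhibition read as loss of FRET rise.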
GLA inh pH 4.5: blocks human alpha-galactosidase A at pH 4.5. purified enzyme, 4-MU-alpha-Gal fluorescence, pH 4.5. activity change, negative = inhibition, % at 105 µM. 230,000 tested, under 10 active; inconclusive = small, poorly fitted or top-dose-only inhibition, or a rising curve; inactive = flat fitted curve, though single readings scatter; no compound was filed as active;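 further: 0% = full activity with enzyme and -100% = basal without enzyme; dose as in the result columns while the protocol names 77 µM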
Rango complex inh: inhibitors of Rango-importin beta complex formation. AID 540263. Rango CFP/YFP FRET sensor + importin beta, 45 min. 340,000 compounds, 0.031% hits. Potency, µM (series often up to 92.2 µM), inactives show top-dose inhibition of complex formation; active = rising FRET ratio curve, often small or poorly fitted; inconclusive = mostly compound fluorescence or quenching in the first reads; inactive = flat curves in all reads;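 further: potency means the concentration at half of the fitted maximal effect; 0% = DMSO wells and 100% = buffer wells lacking importin beta; nearly all actives have a fitted effect of over 15% in size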
Target sequence (Q14974 whole entry, looked up): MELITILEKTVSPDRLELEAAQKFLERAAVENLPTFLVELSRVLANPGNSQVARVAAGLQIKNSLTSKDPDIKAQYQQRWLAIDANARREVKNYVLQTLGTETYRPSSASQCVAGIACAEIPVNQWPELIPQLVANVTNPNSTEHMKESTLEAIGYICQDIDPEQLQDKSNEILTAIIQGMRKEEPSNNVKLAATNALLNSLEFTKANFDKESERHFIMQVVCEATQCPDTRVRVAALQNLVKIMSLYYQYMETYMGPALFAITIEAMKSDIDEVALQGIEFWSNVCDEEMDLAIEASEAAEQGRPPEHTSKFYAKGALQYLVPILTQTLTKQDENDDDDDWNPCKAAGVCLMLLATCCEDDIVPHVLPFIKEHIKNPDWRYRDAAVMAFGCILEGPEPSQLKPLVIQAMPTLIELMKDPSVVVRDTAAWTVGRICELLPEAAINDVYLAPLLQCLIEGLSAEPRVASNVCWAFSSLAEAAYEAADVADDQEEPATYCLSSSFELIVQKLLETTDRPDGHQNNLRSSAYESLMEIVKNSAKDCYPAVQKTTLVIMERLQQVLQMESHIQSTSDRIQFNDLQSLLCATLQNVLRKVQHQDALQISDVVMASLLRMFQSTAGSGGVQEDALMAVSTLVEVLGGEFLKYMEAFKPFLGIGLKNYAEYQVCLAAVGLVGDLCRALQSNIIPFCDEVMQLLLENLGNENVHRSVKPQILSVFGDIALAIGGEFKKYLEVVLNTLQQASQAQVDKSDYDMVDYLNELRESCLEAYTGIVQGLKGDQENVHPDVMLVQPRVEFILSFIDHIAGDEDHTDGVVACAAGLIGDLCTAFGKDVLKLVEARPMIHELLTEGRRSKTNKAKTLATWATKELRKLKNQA
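FRET biosensor (snurportin 1 IBB flanked by EYFP and cerulean), 50 nM, with compound 5 min, then 0.125 microM importin beta in PBS, 1 mM DTT, 0.02% Tween-20, 0.1% BSA. CFP/YFP ratio read after 45 min at room temperature; pre-read flags interference.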
Starred values were filed as active, the others as inactive; ? = inconclusive; . = not tested or not shown. These rows are one share of the data (hit frequency here may not be typical).

SMILES	miR-21 reporter	Rango dissoc inh	GLA inh pH 4.5	Rango complex inh
Cc1ccc2nc(-c3ccccn3)c(NC3CCCC3)n2c1	-11%	-2%	0	0.5%
COc1cccc(C(C)NC(=O)Nc2ccccc2Cl)c1 (configuration not stated)	1%	17%	6	-0.6%
CC(=O)Cc1ccccc1OCC(=O)O	-9%	4%	12	4.1%
CC(C)(C)C(=O)Nc1nnc(SCC(=O)NCc2ccco2)s1	-3%	3%	10	-1.0%
Cc1ccc(S(=O)(=O)/C(=C/Cl)NC(=O)c2ccccc2)cc1	26%	9%	-9	0.1%
O=C(NCc1ccc2c(c1)OCO2)c1ccc2c(c1)N(Cc1c(F)cccc1Cl)C(=O)CS2	9%	-1%	-29	4.4%
CCN(c1ccccc1)S(=O)(=O)c1ccc(OC)c(NC(=O)CN(C)C)c1	1%	-14%	6	1.3%
O=C(O)c1cc2cc(Oc3ccccc3)ccc2[nH]1	-8%	13%	.	0.4%
CCc1c(C(=O)NC2CCCc3ccccc32)[nH]c(C)c1C(C)=O (configuration not stated)	18%	2%	.	0.7%
Cc1c(CC(=O)NCCC(=O)O)c(=O)oc2cc3oc4c(c3cc12)CCCC4	-8%	0%	.	-3.0%

Random excerpt: 5 entries already listed, in no set order.
SMILES	miR-21 reporter	Rango dissoc inh	GLA inh pH 4.5	Rango complex inh
CC(C)(C)C(=O)Nc1nnc(SCC(=O)NCc2ccco2)s1	-3%	3%	10	-1.0%
CCc1c(C(=O)NC2CCCc3ccccc32)[nH]c(C)c1C(C)=O (configuration not stated)	18%	2%	.	0.7%
CCN(c1ccccc1)S(=O)(=O)c1ccc(OC)c(NC(=O)CN(C)C)c1	1%	-14%	6	1.3%
O=C(NCc1ccc2c(c1)OCO2)c1ccc2c(c1)N(Cc1c(F)cccc1Cl)C(=O)CS2	9%	-1%	-29	4.4%
COc1cccc(C(C)NC(=O)Nc2ccccc2Cl)c1 (configuration not stated)	1%	17%	6	-0.6%

Additional records
SMILES	miR-21 reporter	Rango dissoc inh	GLA inh pH 4.5	Rango complex inh
COC(=O)C1=C(C)N(Cc2ccc(C)cc2)C(=O)C1	-1%	3%	4	0.2%
O=C(CN1C(=O)NC(Cc2c[nH]c3ccccc23)C1=O)Nc1ccccc1Br (configuration not stated)	.	8%	.	2.4%
COc1ccc(/C=C2\CCCC3C2=NN(C(=O)COC(=O)CNC(=O)c2ccccc2)C3c2ccc(OC)cc2)cc1 (configuration not stated)	-4%	-1%	-4	1.4%
Cc1cc(OC(=O)c2cc([N+](=O)[O-])ccc2Cl)c([N+](=O)[O-])c(=O)[nH]1	3%	-22%	.	-2.2%
COc1ccc(CCN2CN(S(=O)(=O)c3ccc(OC)cc3)c3nc4ccccc4nc32)cc1	-32%	1%	-12	-1.7%
COc1ccc(N2C(=O)CC(N3CCN(c4ccccc4F)CC3)C2=O)cc1 (configuration not stated)	-11%	0%	0	3.8%
CCOC(=O)c1c(S(=O)(=O)NCC(=O)Nc2cccc(C)n2)c(C)n(C)c1C	1%	-12%	.	-2.0%
CCOc1ccc(C=NN2CCCCCC2)cc1OCC	.	12%	.	-0.4%
CN(c1ccccc1)S(=O)(=O)c1cccc(C(=O)NCCCN2CCCC2=O)c1	.	11%	.	0.5%
Cn1c(=O)c2c(nc(OCc3cccnc3)n2Cc2c(F)cccc2Cl)n(C)c1=O	-13%	-1%	4	-2.7%
CCOC(=O)C1CCN(c2nc(C)cc(C)c2C#N)CC1	-11%	5%	5	1.4%
CC(/C=C\c1ccccc1)=C/C(=O)O	-1%	9%	-1	2.0%
COc1cccc(C2=CC(=O)C(C(C)(C)C)N2C(C)(C)C)c1 (configuration not stated)	.	-1%	.	-2.6%
O=C(NC1CCCN(CCc2ccccc2)C1)c1c(F)cccc1F (configuration not stated)	0%	-14%	.	1.4%
CC(=O)c1cccc(NC(=O)CCc2nnc3ccc(N4CCN(C)CC4)nn23)c1	-1%	-1%	.	3.5%
C=CCc1cc(OC)ccc1OCCOCCC(C(=O)OCC)C(=O)OCC	1%	3%	-7	-1.9%
CCOC(=O)c1ccc(NC(=O)c2ccc(C)c(S(=O)(=O)N3CCOCC3)c2)cc1	?	17%	11	11%
COc1ccc([C@H]2CC(=O)C=C(c3ccccc3OC)C2)cc1OC	.	-11%	.	-6.7%
COc1ccc(-c2nn(-c3ccccc3)cc2C(=O)O)cc1N	-3%	-2%	.	-0.9%
Cc1ccc(C)c(NC(=S)N2CCC(NC(=O)C3CCCCC3)CC2)c1	5%	2%	.	0.0%
CCOC(=O)c1[nH]ncc1CN1CCCC(C(=O)c2cccc3ccccc23)C1 (configuration not stated)	1%	2%	-3	5.4%
COc1ccc2[nH]c(=O)c(CN(CC3CCCO3)C(=O)Nc3ccccc3)cc2c1 (configuration not stated)	-1%	1%	-1	2.1%
O=C(CSc1nc2ccccc2c(=O)n1Cc1ccco1)NCc1ccco1	-2%	-17%	6	-5.3%
O=C(Nc1ccc(F)c(Cl)c1)N1CCCC1	-10%	-6%	5	3.0%
O=C(Nc1ccccc1Cl)c1cccc(NS(=O)(=O)c2ccccc2)c1	-4%	.	-3	.
Cc1ccc(S(=O)(=O)NCCC(=O)NCC(=O)Nc2c(C)cccc2C)cc1C	.	0%	.	-0.7%
CC1CCCCN1CCCNC(=O)C1CCN(c2nc3ccccc3o2)CC1 (configuration not stated)	-9%	12%	-13	0.2%
COc1ccc2[nH]c(C(=O)N(C)c3ccc(F)cc3F)cc2c1	-5%	4%	-8	-0.4%
CN(C)S(=O)(=O)NCCNc1ccc(C(F)(F)F)cc1[N+](=O)[O-]	-31%	-15%	-13	-0.5%
S=c1[nH]nc(-c2ccc(Cl)cc2)n1-c1ccc(Cl)cc1	-2%	-13%	.	0.4%
Cc1ccc(O)c(CCc2ccccc2)n1	-19%	3%	-5	1.0%
CCn1c(=O)c2c3c(sc2n(C)c1=O)CCC3	-1%	-9%	-9	0.9%
CC1(C(=O)OCC(=O)Nc2ccc(C(N)=O)cc2)CC1(Cl)Cl (configuration not stated)	0%	-1%	7	-3.6%
COc1ncnc2c1sc1nc(-c3ccccc3)c3c(c12)CCCC3	2%	2%	5	0.7%
COc1cccc(C(c2sc3ncnn3c2O)N2CC(C)OC(C)C2)c1 (configuration not stated)	-7%	-3%	6	1.5%
CC(C)(C)NS(=O)(=O)c1cc(C(=O)Nc2sccc2C#N)ccc1Cl	-15%	-22%	8	?
O=C(Nc1ncccc1O)c1cc2ccccc2o1	.	9%	.	?
Cc1cnc(C)c(N2CCC(C(=O)NCc3cccs3)CC2)n1	-4%	-3%	-2	-0.7%
CC(C)(C)C(=O)/C=C(\N)c1ccccn1	-5%	-16%	8	-1.8%
COc1cccc(OCc2nnc(SCC(=O)NNC(=O)C3CCCCC3)n2C)c1	0%	-6%	6	0.3%

Another view of two compounds above:
| miR-21 reporter | Rango dissoc inh | GLA inh pH 4.5 | Rango complex inh | Compound |
| --- | --- | --- | --- | --- |
| -4% | -3% | -2 | -0.7% | Cc1cnc(C)c(N2CCC(C(=O)NCc3cccs3)CC2)n1 |
| -5% | -16% | 8 | -1.8% | CC(C)(C)C(=O)/C=C(\N)c1ccccn1 |

(next part)
SMILES	miR-21 reporter	Rango dissoc inh	GLA inh pH 4.5	Rango complex inh
CCC(C)(C)NC(=O)C(c1ccc(C)cc1)N(Cc1ccco1)C(=O)CCC(=O)Nc1nccs1 (configuration not stated)	-2%	0%	-6	-2.4%
CC(C)(C)c1nc2sc3c(c2c(=O)o1)CCCC3	3%	17%	-3	0.4%
O=C(NCCCN1CCOCC1)C(=O)N/N=C/c1c(Cl)cccc1Cl	4%	-2%	6	-1.0%
CCN(CC)S(=O)(=O)c1ccc(C(=O)NC(=S)N(CCC#N)Cc2cccnc2)cc1	-1%	6%	3	-0.1%
CCN(CC)S(=O)(=O)c1ccc(N2CCCC2)c(NC(=O)Cc2ccccc2)c1	0%	5%	-13	-0.6%
CCOC(=O)/C=C/C(=O)Nc1cc(S(=O)(=O)Nc2ccc(OC)cc2)ccc1N1CCOCC1	.	-18%	.	0.4%
CCCOc1ccc(/C=C/C(=O)N2CCOCC2)cc1	-40%	10%	.	?
O=C(NCc1ccco1)c1ccc(=O)[nH]n1	2%	20%	1	-5.0%
CCCCn1c(=O)nc2n(-c3ccc(Cl)cc3)c3ccccc3cc-2c1=O	0%	?	-6	?
Cn1cccc1/C=N/NC(=O)C12CC3CC(CC(C3)C1)C2	-11%	6%	2	-0.6%

Entries of single compounds, looked up by structure.
CCC(C)(C)NC(=O)C(c1ccc(C)cc1)N(Cc1ccco1)C(=O)CCC(=O)Nc1nccs1 (configuration not stated) reads miR-21 reporter: -2%; Rango dissoc inh: 0%; GLA inh pH 4.5: -6; Rango complex inh: -2.4%
CCCOc1ccc(/C=C/C(=O)N2CCOCC2)cc1 reads miR-21 reporter: -40%; Rango dissoc inh: 10%; GLA inh pH 4.5: .; Rango complex inh: ?

Continuation.
SMILES	miR-21 reporter	Rango dissoc inh	GLA inh pH 4.5	Rango complex inh
COc1ccccc1Cn1c(-c2ccccc2OC)nc2ccccc21	23%	-13%	-8	-1.5%
CSC(=Nc1ccccc1)N=C(SCc1ccccc1)N(C)C	.	11%	.	-0.4%
CCCc1cc(=O)oc2c(C)c(OCC(=O)N3CCC(C(=O)O)(c4ccccc4)CC3)ccc12	-3%	-18%	.	0.1%
Cc1nc2ncnn2c(N2CCN(C(=O)Cc3cccs3)CC2)c1C	-2%	-15%	1	?
CCOc1cc(/C=N/O)cc(Br)c1OCC(=O)NCc1ccccc1	-20%	44%	-9	1.9%
O=[N+]([O-])c1cccc2ccc(/C=C/c3ccc(F)cc3)nc12	-79%	2%	-5	0.2%
OCc1cccc[n+]1CCc1ccccc1	.	0%	.	0.8%
CCOC(=O)N1CCN(CC(=O)Nc2c(C(=O)OC)[nH]c3ccccc23)CC1	-2%	-9%	-3	5.9%
CCOc1ccc(/C(O)=C2/C(=O)C(=O)N(CCOCCO)C2c2ccccc2)cc1 (configuration not stated)	-17%	-7%	-5	?
Cc1nn(C)c(Oc2ccccc2)c1CCNS(=O)(=O)c1ccccc1	17%	11%	-9	-7.1%
COCCn1c(C)cc(C(=O)CSc2ccc(NC(C)=O)cc2)c1C	-39%	2%	-3	3.8%
Cc1ccc(NC(=O)C2CCN(S(=O)(=O)c3ccc4c(c3)OCCO4)CC2)nc1	.	1%	.	2.2%
CCC(OC(=O)CN1C(=O)C(=O)c2ccccc21)C(=O)Nc1ccc(S(N)(=O)=O)cc1 (configuration not stated)	-3%	-7%	6	0.8%
Cc1cc(C)n(CC(=O)NNC(=O)c2ccc(OC(F)(F)F)cc2)n1	.	1%	.	3.3%
Cc1cc(C)cc(OCC(=O)Nc2ccc(N3CCN(C(=O)c4ccco4)CC3)cc2)c1	25%	1%	0	2.4%
NS(=O)(=O)c1ccc(NC(=S)N2CCN(c3ccc(Cl)c(Cl)c3)CC2)cc1	0%	-7%	2	0.1%
CCCCC[n+]1ccn(C2=C([O-])c3ccccc3C(=O)/C2=N\S(=O)(=O)c2ccccc2)c1	1%	-8%	9	-0.2%
COC(=O)c1ccccc1-c1c2ccc(=N)cc-2oc2cc(N)ccc12	.	.	.	?
Cc1ccc(-c2nnc(SCc3nc(N)nc(Nc4ccccc4C)n3)n2N)cc1	-9%	-3%	-1	0.7%
O=[N+]([O-])c1ccc(N(c2ccccc2)c2ccccc2)cc1	4%	?	-10	?
COc1ccccc1N1CCN(C(=O)c2ccc(Cl)c(S(=O)(=O)N3CCCC3)c2)CC1	?	4%	14	0.6%
Cc1cc(NC(=O)c2cc(C)on2)n(-c2ccccc2)n1	-16%	1%	2	-5.6%
Nc1cc(C(=O)OCC(=O)N2CCCC2=O)ccc1Cl	.	-7%	.	-1.1%
O=C(O)c1ccc(N/N=C2/CCCc3ccccc32)cc1	-86%	20%	-6	3.6%
O=C(CN(Cc1ccc(Cl)cc1)C(=O)c1csnn1)NCc1ccccc1	-2%	-9%	.	-3.5%
Cc1cc(C)c(C#N)c(SCc2ccc(F)cc2)n1	-12%	0%	5	3.2%
Cc1cc(C)n(CC2CC(=O)N(c3ccc(Cl)cc3)C2=O)n1 (configuration not stated)	0%	1%	-2	1.4%
CCOC(Cn1c(-c2ccc(OC)cc2)nc2ccccc21)OCC	-16%	5%	8	0.7%

Compound activity from PubChem.
